SARS PLpro yeast: qHTS of Yeast-based Assay for SARS-CoV PLP; 330,000 tested, 0.19% active; Potency, µM (series often up to 32.9 µM), without a hit: top-dose activity, positive = growth rescue; S. cerevisiae expressing SARS-CoV PLpro, growth rescue; control for the full effect not named in the record; also: 0% is about no effect; nearly all actives have a fitted effect of over 55% in size; growth read by luminescence after 48 h
MARV entry inh: qHTS for inhibitors of binding or entry into cells for Marburg Virus | Marburg virus pseudotyped entry inhibition, cell reporter; control for the full effect not named in the record; about a third of the inactives were read at about 46 µM | Potency, µM (titrated, usually from 37.8 µM), for inactives: top-dose activity change, negative = inhibition, actives largely listed as inhibitors | 300,000 tested, 1.8% active | AID 540276, 2011; active = well fitted inhibition curve with a large enough effect; inconclusive = small, poorly fitted or top-dose-only effect, or effect the other way; inactive = flat fitted curve, though single readings scatter; tested in HEK293 cells; about a fifth of its hits are not listed in these tables; also: % is scaled to controls: 0 for no effect and ±100 for the full control effect; luciferase read-out
LASV entry inh: qHTS for Inhibitors of binding or entry into cells for Lassa Virus; 300,000 tested, 1.2% active; Potency, µM (highest dose often 37.9 µM), inactives show at the highest dose activity change, negative = inhibition, actives largely listed as inhibitors; Lassa virus pseudotype entry inhibition, cell reporter; control for the full effect not named in the record; AID 540256, 2011; active means well fitted inhibition curve with a large enough effect; inconclusive means small, poorly fitted or top-dose-only effect, or effect the other way; inactive means flat fitted curve, though single readings scatter; tested in HEK293 cells; also: % is scaled to controls: 0 for no effect and ±100 for the full control effect; nearly all actives have a fitted effect of over 50% in size; luciferase read-out
Cruzain Triton: qHTS Assay for Promiscuous and Specific Inhibitors of Cruzain (with detergent) | purified cruzain, Z-FR-AMC fluorescence, 0.01% Triton | Potency, µM, for inactives: max response, negative = inhibition, usual class: inhibitors | 200,000 tested, 0.43% active; active = well fitted curve in the direction sought with a large enough effect; inconclusive = small, poorly fitted or top-dose-only effect, or another doubt; inactive = no such curve, though single readings can be large; an effect the other way counts as inactive or inconclusive;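 also: plate controls were neutral wells for no effect and buffer without enzyme for full effect; nearly all actives have a fitted effect of over 40% in size; top concentration of the series not given in the record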
Target sequence (P25779 123-467 limits assumed): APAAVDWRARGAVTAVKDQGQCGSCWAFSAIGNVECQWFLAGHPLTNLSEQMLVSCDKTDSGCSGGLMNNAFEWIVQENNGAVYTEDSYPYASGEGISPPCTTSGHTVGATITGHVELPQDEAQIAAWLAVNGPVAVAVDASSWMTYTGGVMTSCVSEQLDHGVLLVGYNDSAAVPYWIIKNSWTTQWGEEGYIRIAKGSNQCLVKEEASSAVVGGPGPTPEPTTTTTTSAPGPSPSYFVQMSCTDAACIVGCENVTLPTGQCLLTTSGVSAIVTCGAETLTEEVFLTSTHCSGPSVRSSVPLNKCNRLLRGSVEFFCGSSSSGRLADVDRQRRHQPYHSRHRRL
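In this qHTS format, compounds are incubated with 1.5 nM cruzain for 15 min at room temperature before 2 uM Z-FR-AMC is added. Release of AMC is followed at 360/450 nm, and progress is taken as the 60 s fluorescence difference.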
Cruzain noTriton: qHTS Assay for Promiscuous and Specific Inhibitors of Cruzain (without detergent). Cruzipain (Trypanosoma cruzi), P25779. purified cruzain, Z-FR-AMC fluorescence, no detergent. Potency, µM, without a hit: max response, negative = inhibition, actives largely listed as inhibitors. 200,000 tested, 2.3% active. AID 1476, 2009; active = well fitted curve in the direction sought with a large enough effect; inconclusive = small, poorly fitted or top-dose-only effect, or another doubt; inactive = no such curve, though single readings can be large; an effect the other way counts as inactive or inconclusive;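 also: plate controls were enzyme without inhibitor for no effect and buffer without enzyme for full effect; nearly all actives have a fitted effect of over 40% in size; top concentration of the series not given in the record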
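Detergent-free condition (0.00005% Triton X-100) in acetate buffer pH 5.5 with DTT. 1.5 nM enzyme and compound were pre-mixed 15 min, then 2 uM Z-FR-AMC substrate added; reaction progress from fluorescence change between first and third reads (60 s).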
StopGo reporter: High Throughput Screening for Foot and Mouth Disease Virus Antivirals; human cells with a luciferase reporter of 2A StopGo recoding; control for the full effect not named in the record; Potency, µM (doses to about 57.9 µM), without a hit: top-dose signal change, negative = less light; 410,000 tested, 1.2% active; AID 1159524, 2015; active = well fitted falling curve with a large enough effect; inconclusive = small, poorly fitted or top-dose-only effect; inactive = no such curve, though single readings can be large or run the other way; tested in HEK293T cells; also: % is scaled to controls: 0 for no effect and ±100 for the full control effect; nearly all actives have a fitted effect of over 45% in size; luciferase light after 4 h
NS1 inh: qHTS Assay for Inhibitors of Influenza NS1 Protein Function | Potency, µM (highest dose often 46.1 µM), inactives show at the top dose activity, positive = more growth | S. cerevisiae slowed by influenza A NS1, growth recovery by OD600 | 270,000 tested, 0.4% active; also: actives are rising curves; nearly all actives have a fitted effect of over 50% in size
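A cell-based growth assay was used: compounds that relieve NS1-induced slow growth of budding yeast raise OD600. Assay medium was yeast nitrogen base with ammonium sulphate and -URA supplement, pH 6.0, with 2% galactose.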
RE007 growth inh: qHTS Assay for Inhibitors of the HIV-1 protein Vpr | S. pombe RE007 Vpr strain, BacTiter-Glo ATP luminescence, 24 h; control for the full effect not named in the record | Potency, µM (top dose mostly 92.2 µM), for inactives: top-dose activity change, negative = less growth | 360,000 tested, 0.21% active | AID 651644, 2012; active = well fitted falling curve with a large enough effect; inconclusive = small, poorly fitted or top-dose-only effect; inactive = no such curve, though single readings can be large or run the other way;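 also: % is scaled to controls: 0 for no effect and ±100 for the full control effect; nearly all actives have a fitted effect of over 50% in size; the assay follows cell death caused by Vpr and the record does not say whether a fall means rescue or toxicity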
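Fission yeast strain RE007, carrying one chromosomally integrated HIV-1 vpr copy, was seeded at OD 0.01 in PMG+AL medium with 23 nL pinned compound. After 24 h at 30 °C and 99% humidity, viability was read by BacTiter-Glo luminescence.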
The depositor's hits bear a star; ? = inconclusive; · = not tested or not shown; & = joins results of further samples; [ ] = remark or other dose. Unless noted, calls follow the shape of the dose curve; as a rule, active means well fitted rising curve with a large enough effect; inconclusive means small, poorly fitted or top-dose-only effect; inactive means no such curve, though single readings can be large or run the other way. Potency is read from the fitted curve at half-maximal effect. An unsorted share of the library; overall some 4.6% were active at least once.

SMILES | SARS PLpro yeast | MARV entry inh | LASV entry inh | Cruzain Triton | Cruzain noTriton | StopGo reporter | NS1 inh | RE007 growth inh
CC1CN(C(=O)c2cc(-c3ccc(Cl)s3)nc3ccccc23)CC(C)O1 (stereo not drawn) | 2.4% | -18.8% | -15.3% | · | · | -15.4% | · | -7.0%
CC(C)C(C)(C#N)NC(=O)CSc1nc(C2CCCCC2)n(-c2ccccc2)n1 (stereo not drawn) | 2.6% | ? | -2.3% | -2.2% | 8.3% | -5.2% | -11.7% | 21.7%
CCN1CCN(C(=S)c2ccc(-c3ccccc3)cc2)CC1 | 0.3% | · | · | · | · | -27.7% | -2.9% | 6.7%
CC(=O)c1c(C)[nH]c(C(=O)N2CCCCCC2)c1C | 7.8% | -0.4% | 1.4% | 1.0% | -3.0% | 7.6% | -6.8% | ?
O=C(c1ccc2c(c1)OCCCO2)c1cccs1 | 13.5% | 21.7% | ? | -1.8% | -2.6% | 30.6%[activator] | -60.3% | ?
O=C(COc1ccccc1[N+](=O)[O-])N/N=C/c1ccc(O)cc1 | 0.6% | 11.8% | -18.1% | -4.8% | -6.9% | 1.4% | 22.1% | 0.6%
CN(c1ccc(F)cc1)S(=O)(=O)c1ccc(Cl)c(C(=O)NCC2CCCO2)c1 (stereo not drawn) | -2.5% | -0.6% | 0.7% | · | · | 6.3% | · | -8.4%
COc1ccccc1-n1nnnc1SCC(=O)N(CC(C)C)C1CCS(=O)(=O)C1 (stereo not drawn) | -1.9% | -1.8% | -5.9% | · | · | -1.8% | -8.3% | 5.9%
NC(=O)CSc1nnc(-c2cccs2)n1Cc1ccco1 | 0.2% | · | · | · | · | -7.6% | 3.2% | 29.1%
O=C(NCc1ccco1)Nc1ccc2snnc2c1 | -2.5% | 8.2% | -1.0% | -5.6% | -15.8% | 48.3%[activator] | -3.4% | -17.2%
CC(Nc1oc(-c2ccc(COc3ccc(Cl)cc3)o2)nc1C#N)c1ccccc1 (stereo not drawn) | · | -14.1%[46.1 µM] | -24.8%[46.1 µM] | -7.8% | -26.1% | 0.0% | · | ·
Cc1ccc(/S(C)=N/S(=O)(=O)c2ccc(C)cc2)cc1 (stereo not drawn) | 0.6% | -3.8% | -11.9% | -1.8% | -3.2% | -3.1% | 9.9% | -3.3%
COC(=O)C1=C(C)N(CCc2ccc(OC)cc2)C(=O)C1 | 10.8% | -17.9%[46.1 µM] | ? | -2.6% | 8.5% | 0.0% | 9.3% | -5.8%
CSc1nc(C)c2c(n1)OC(CN1C(=O)c3ccccc3C1=O)C2 (stereo not drawn) | 0.4% | -6.5% | · | 6.5% | 0.8% | · | 1.1% | ·
O=C1c2ccccc2C(=O)N1CCc1nc(-c2cccnc2)no1 | -1.7% | 17.7% | 8.9% | -4.2% | -13.0% | · | -1.6% | -12.1%
Nc1ccc(Oc2c(Cl)cccc2Cl)nc1 | 0.5% | · | · | · | · | 10.2% | -0.4% | 2.2%
Cc1cc(Br)ccc1OCCNCc1ccccc1 | -5.2% | ? | 21.2%[46.1 µM] | · | · | ? | · | -12.8%
CN1CCN(C(=O)c2sc(=S)n(-c3ccccc3)c2N)CC1 | 4.3% | ? | -1.6% | -0.9% | -8.5% | 1.6% | 0.8% | 2.1%
O=C(/C=C/c1ccc(Br)cc1)NCc1cccs1 | -10.4% | 32.9% | 2.59µM* | -0.5% | 1.3% | 20.0% | -11.4% | -5.5%
O=C(O)c1ccccc1C=NNc1ccc([N+](=O)[O-])cn1 | · | 1.8%[46.1 µM] | ? | · | · | 36.0%[activator] | · | 9.3%
CCOC(=O)C1CCN(C(=S)Nc2ccccc2)CC1 | -1.3% | · | · | · | · | -18.4% | -1.2% | 16.0%
Cc1cc(O)ccc1NS(=O)(=O)c1ccc2c3c(cccc13)C(=O)N2 | -0.4% | -29.3%[46.1 µM] | ? | · | · | 13.0% | 19.7% | -3.9%
COc1ccc(-n2cc(CNCCCn3ccnc3)c(-c3ccccc3Cl)n2)cc1 | -0.3% | · | · | · | · | -18.8% | 1.2% | -3.0%
C=CCNC(=O)CN1CCC(NC(=O)c2ccco2)CC1 | 0.8% | 1.1%[46.1 µM] | 3.8% | · | · | -7.3% | -1.5% | 0.7%
COc1ccc(CS(=O)/C(Cl)=C(/Cl)C(=O)Nc2ccc(OC)nc2)cc1 (stereo not drawn) | -25.7% | · | 3.98µM* | · | · | 5.62µM* | · | -22.3%
The listing continues.
SMILES | SARS PLpro yeast | MARV entry inh | LASV entry inh | Cruzain Triton | Cruzain noTriton | StopGo reporter | NS1 inh | RE007 growth inh
CC1(c2ccc(Cl)cc2)NC(=O)N(CC(=O)Nc2cccnc2Cl)C1=O (stereo not drawn) | -4.1% | -4.6% | -12.9%[46.1 µM] | · | · | -11.3% | · | -9.9%
CSc1nc2ccc(NC(=O)c3ccc(=O)n(C)n3)cc2s1 | 0.8% | 2.1%[46.1 µM] | 2.5% | · | · | 6.2% | -14.5% | -11.7%
Cc1oc(C(C)(C)C)cc1C(N)=O | -0.7% | 1.5%[46.1 µM] | ? | · | · | -14.8% | -0.8% | 7.1%
Cc1ccc(/C=N/NC(=O)c2ccc3nc[nH]c3c2)o1 | 1.0% | -6.0%[46.1 µM] | 3.6%[46.1 µM] | · | · | -11.5% | 11.7% | 3.4%
COc1cc(NC(=O)C/C(C)=N/NC(=O)C2CCCCC2)c(OC)cc1Cl | 4.5% | ? | -0.9%[46.1 µM] | · | · | 3.9% | 9.0% | -16.9%
CCC(C)N1CCNCC1 (stereo not drawn) | 0.4% | 11.2%[46.1 µM] | -12.1%[46.1 µM] | · | · | 7.4% | -1.2% | 4.8%
Cc1ccc2c(c1)C(c1ccccc1)N(C(=O)c1ccc(Br)o1)CC(=O)N2 (stereo not drawn) | 4.6% | -2.3% | · | -7.4% | -10.4% | -2.6% | 24.6% | -9.4%
Cc1ccc(C2(C)NC(=O)N(CC(=O)Nc3ccccc3C(=O)N3CCCCC3)C2=O)cc1 (stereo not drawn) | 0.9% | 0.9% | -1.0% | · | · | -6.5% | · | 4.0%
CC(C)Cc1nnc(NC(=O)C2CCN(C(=O)c3ccc(F)cc3)CC2)s1 | 2.4% | -14.2% | -1.9% | · | · | -19.9% | · | -18.7%
Cc1ccc(S(=O)(=O)NCC(c2ccc3c(c2)OCO3)N2CCN(c3ccccc3)CC2)cc1 (stereo not drawn) | 0.1% | ? | ? | · | · | 14.5% | · | 1.1%
Cc1ccn(CCNC(=O)C2CCC(=O)N(CCc3ccc(Cl)cc3)C2)n1 (stereo not drawn) | 9.7% | 21.2% | 23.8% | · | · | 4.1% | 4.7% | 3.6%
COc1ccc2[nH]c(=O)c(C(=O)O)cc2c1 | 2.2% | ? | -21.2% | · | · | -5.9% | · | 5.5%
S=C(Nc1ccccc1)N1CCc2ccccc21 | 1.3% | · | · | · | · | 24.9% | 11.1% | -9.4%
Cc1c(C(=O)Cc2ccccc2)n(C)c2ccccc12 | -6.4% | -16.2% | ? | · | · | -12.1% | · | -16.0%
CC(=O)c1ccc(N(C)C)cc1 | 2.82µM* | 7.0% | 1.6% | -3.5% | -3.1% | 1.8% | -10.0% | -10.7%
CCOc1cc(S(=O)(=O)n2ccnc2)ccc1Cl | 0.2% | -0.7%[46.1 µM] | -12.3% | · | · | -7.6% | 3.7% | 2.3%
COc1ccc(-n2ccnc(SCC(=O)NCc3ccccc3Cl)c2=O)cc1 | 1.0% | · | · | · | · | -4.6% | -3.1% | 5.2%
COc1c(Cl)cc(Br)c(OC)c1C(=O)NC(=O)Nc1nc(C)cc(C)n1 | 0.0% | 13.1%[14.2 µM] | 0.7% | · | · | -25.8% | 3.1% | -9.3%
COCCCn1c(=O)c2sccc2n2c(CCCC(=O)NCc3ccc(F)cc3)nnc12 | 20.7% | ? | -9.1%&13.2%[46.1 µM] | -0.6% | -3.6% | -8.9%&2.9% | 0.3% | 2.8%
CCOc1ccc(CCNC(=O)C2CCN(C(=O)N(C)C)CC2)cc1OCC | -4.8% | 7.3% | 15.2% | 1.0% | -3.5% | · | -1.7% | -3.2%
NC(=O)c1ccc(NC(=O)CSc2nnc(-c3cccnc3)n2Cc2ccco2)cc1 | 14.1% | · | · | · | · | -4.3% | 11.5% | 18.2%
COc1ccc(Cl)cc1NC(=O)C(=O)NC1CCCCCC1 | -3.3% | ? | 0.9% | -3.1% | 9.1% | -5.1% | 0.5% | 10.9%
CCOc1ccc(CCNS(=O)(=O)c2cc(Br)cc3c2N(C(C)=O)CC3)cc1OCC | · | · | 5.6%[46.1 µM] | -2.3% | 16.3% | 38.2%[activator] | · | ·
COc1ccc(C(=O)c2cn(Cc3ccc(F)cc3)c3c(F)cc(F)cc3c2=O)cc1 | · | -21.4%[46.1 µM] | ? | 1.8% | -8.1% | -20.1% | · | ·
Cc1noc(NS(=O)(=O)c2ccc(NC(=O)CSc3ncccn3)cc2)c1C | 8.1% | · | · | -2.4% | 1.2% | -24.6% | -15.1% | -1.0%
O=C(NCCN1CCN(C(=O)c2cc3ccccc3oc2=O)CC1)c1cc2ccccc2oc1=O | 47.7% | ? | 1.9% | -4.2% | -17.4% | -7.0% | -16.1% | -11.9%
CCCCc1ccc(NC(=S)NN2CCOCC2)cc1 | 10µM* | ? | ? | 4.7% | -11.1% | 16.8% | 24.9% | 8.5%
Cc1ccc(S(=O)(=O)n2nc(C)c(S(=O)(=O)N3CCCCC3)c2C)cc1 | 1.7% | 10.2%&10.2%[46.1 µM] | ? | 0.3% | -7.1% | 13.5%&-0.1% | -1.9% | 10.3%
Cc1ccc(S(=O)(=O)N2CCOCC2)cc1NC(=O)COc1ncnc2ccccc12 | 4.0% | 9.7% | 7.6% | 7.5% | -9.7% | -13.4% | ? | 13.9%

Compound activity as filed in PubChem BioAssay.
